TRPML1 inh – qHTS for Inhibitors of the Human Mucolipin Transient Receptor Potential 1 (TRPML1); activity change, negative = inhibition, % (no concentration beside the values); TRPML1-inducible cells, Ca2+ dye fluorescence, FDSS; stronger effect = lower value; inhibition of EC80 agonist-evoked calcium signal; 390,000 compounds, 0.02% hits; Mucolipin-1 (Homo sapiens), Q9GZU1; in the data active means activity change below about -50%; inconclusive means about -30% to -50%; inactive means above about -30%;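 further: stimulus is agonist 54-4 at its EC80 concentration; on the % scale 0 is the no-effect control and ±100 the full control effect; compound concentration not given in the record; the text of the record puts the active cut at -80%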
Target sequence (Q9GZU1 whole entry, looked up): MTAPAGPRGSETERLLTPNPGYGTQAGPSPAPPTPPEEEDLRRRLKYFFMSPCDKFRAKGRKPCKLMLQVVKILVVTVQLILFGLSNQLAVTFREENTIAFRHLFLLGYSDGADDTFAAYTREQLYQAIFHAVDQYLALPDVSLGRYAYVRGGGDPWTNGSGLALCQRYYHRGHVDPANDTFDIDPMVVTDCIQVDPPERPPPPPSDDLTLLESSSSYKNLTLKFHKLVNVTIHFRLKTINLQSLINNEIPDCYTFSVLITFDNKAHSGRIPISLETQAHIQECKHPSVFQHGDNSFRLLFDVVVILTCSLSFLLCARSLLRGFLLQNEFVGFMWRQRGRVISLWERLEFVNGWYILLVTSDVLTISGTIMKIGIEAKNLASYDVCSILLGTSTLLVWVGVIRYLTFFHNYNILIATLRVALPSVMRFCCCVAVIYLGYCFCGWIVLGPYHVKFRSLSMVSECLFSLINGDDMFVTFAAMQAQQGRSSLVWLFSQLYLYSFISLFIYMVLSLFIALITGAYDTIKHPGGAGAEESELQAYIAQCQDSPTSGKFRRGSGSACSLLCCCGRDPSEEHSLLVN
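Calcium fluorescence in TRPML1-DL cells induced overnight with Tet: a 110 s read after compound pin addition, then a 110 s antagonist read after challenge with 54-4 at 4 uM final (EC80).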
D2 ag – Beta-Arrestin HTS for Positive Allosteric Modulators of the Human D2 Dopamine Receptor: Agonists; DiscoveRx PathHunter D2 beta-arrestin, luminescence, 90 min; 100% = 57 uM dopamine signal; AID 624465, 2012; activation, % (no concentration beside the values); D(2) dopamine receptor (Homo sapiens), P14416; 360,000 compounds, 0.084% hits; in the data active = activation above about 40%; inconclusive = about 15% to 40%; inactive = below about 15%; further: compound concentration not given in the record; the text of the record calls up to 30% inactive
Target sequence (P14416 whole entry, looked up): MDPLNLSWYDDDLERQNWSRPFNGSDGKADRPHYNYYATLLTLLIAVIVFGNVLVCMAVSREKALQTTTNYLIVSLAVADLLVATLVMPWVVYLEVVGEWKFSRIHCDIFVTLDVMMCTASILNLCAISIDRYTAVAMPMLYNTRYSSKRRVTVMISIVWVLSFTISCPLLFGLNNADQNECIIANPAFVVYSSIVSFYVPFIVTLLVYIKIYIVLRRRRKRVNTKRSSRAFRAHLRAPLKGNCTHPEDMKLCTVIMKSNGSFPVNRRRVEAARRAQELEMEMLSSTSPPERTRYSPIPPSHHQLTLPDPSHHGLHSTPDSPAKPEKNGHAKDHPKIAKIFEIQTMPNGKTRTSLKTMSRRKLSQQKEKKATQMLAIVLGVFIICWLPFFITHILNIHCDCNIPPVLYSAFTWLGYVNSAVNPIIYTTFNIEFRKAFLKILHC
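Agonist mode: compounds alone added to overnight-plated D2 PathHunter cells for 90 min at 37 C, with 57 uM final dopamine (EC100) defining full response. Beta-arrestin recruitment detected by chemiluminescent reagent, read after 1 h at ambient temperature.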
PINK1 expr mod – A Quantitative High throughput Screen to Identify Chemical Modulators of PINK1 Expression; PINK1 immunofluorescence, high-content cytometry, 24 h; 410,000 compounds, 0.2% hits; AID 624263, 2012; Potency, µM (series often up to 76.6 µM), for inactives: at the top dose activation (PINK1 increase), most hits filed as activators; active = well fitted activation curve with a large enough effect; inconclusive = small, poorly fitted or top-dose-only effect; inactive = flat fitted curve, though single readings scatter; cell line not stated here;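 further: potency means the concentration at half of the fitted maximal effect; % of control where 0% means no effect; nearly all actives have a fitted effect of over 65% in size; a mitochondrial uncoupler was the plate control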
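Stable cell line, 250 cells/well, 12 h attachment; compounds pinned at 5 concentrations, 24 h; CCCP control. Fixed with nuclear dye, primary antibodies 12 h at 10 degrees C, secondary plus cell stain; laser-scanning cytometer read.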
Six1-Eya2 blk – qHTS Assay for Inhibitors of the Six1/Eya2 Interaction. AID 651725, 2012. 360,000 compounds, 0.56% hits. AlphaScreen GST-Six1/His-Eya2 binding, biochemical; stronger effect = lower value; control for the full effect not named in the record. activity change, % (test concentration not listed). Homeobox protein SIX1 (Homo sapiens) + Protein phosphatase EYA2 (Homo sapiens), …; in the data active = activity change below about -65%; inconclusive = about -30% to -65%; inactive = above about -30%; further: on the % scale 0 is the no-effect control and ±100 the full control effect
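GST-Six1 + His-Eya2 (5X stock: 250/500 nM); Tris pH 8.0, 300 mM NaCl, 0.05% BSA, 0.02% Tween 20; GSH donor/Ni acceptor beads; 1 h 37 °C dark; AlphaScreen readout.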
CtBP-E1A blk – qHTS Assay for Inhibitors of the CtBP/E1A Interaction | CtBP / adenovirus E1A interaction (AlphaScreen) | AlphaScreen GST-E1A/His-CtBP binding, 1536-well; stronger effect = lower value; control for the full effect not named in the record | activity change, % (concentration not given with the values) | 340,000 compounds, 0.49% hits; in the data active means activity change below about -65%; inconclusive means about -30% to -65%; inactive means above about -30%; further: on the % scale 0 is the no-effect control and ±100 the full control effect
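Steps: dispense buffer (Tris pH 8.0, NaCl 300 mM, TCEP 1 mM, BSA, Tween 20); add 5X protein mix (GST-E1A, His-CtBP, 125 nM each); pin 23 nL compound; 2 h at 37 °C, dark; add 5X beads (50 ug/mL); 1 h; read.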
TRPML1 agonist – qHTS for Agonists of the Human Mucolipin Transient Receptor Potential 1 (TRPML1); Mucolipin-1 (Homo sapiens), Q9GZU1; TRPML1-expressing cells, Ca2+ dye fluorescence, FDSS; host cell line not named in the record; reference of the full effect not given here; activation, % (concentration not given with the values); 410,000 compounds, 0.12% hits; in the data active = activation above about 50%; inconclusive = about 30% to 50%; inactive = below about 30%; further: 0% is about no effect; the text of the record puts the active cut at 80%
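TRPML1-DL cells, Tet-induced overnight (~16 h, 37 degrees C), loaded 45-90 min at room temperature with Ca8 no-wash calcium dye plus quencher. FDSS fluorescence: 10 s baseline, compound pin-transfer, 110 s agonist read, then EC80 54-4 (4uM final) and 110 s antagonist read.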
Starred values were filed as active, the others as inactive; ? = inconclusive; . = not tested or not shown; & = joins results of further samples; [ ] = another dose, or the depositor's remark.

SMILES	TRPML1 inh	D2 ag	PINK1 expr mod	Six1-Eya2 blk	CtBP-E1A blk	TRPML1 agonist
Cc1ccc(N/N=C2/CCCNC2=O)cc1	-2	-5.8	1.1%	6	-2	0.8
CC(C)(C)c1ccc(C(=O)NCc2nnc(SCC(=O)NCc3ccco3)o2)cc1	0	1.9	0.8%	-1	1	-0.6
CN(C)CCCNC(CC(=O)Nc1cccc([N+](=O)[O-])c1)C(=O)O (stereo not given)	-3	-1.7	3.7%	25	19	-0.4
N#CC1=C(N)NC(SCC(=O)Nc2ccccc2)=C(C#N)C12CCCC2	0	-2.2	1.5%	-9	4	-1.2
COc1ccccc1N(C(=O)c1snc(C(N)=O)c1N)C(C(=O)NCc1ccccc1)c1ccc(C)o1 (stereo not given)	-8	-3.4	0.1%	1	0	2.7
COc1ccc(-n2ncc3c(NCCC4=CCCCC4)ncnc32)cc1	5	.	3.4%	.	.	1.2
N#CC1=C2SCN(c3ccccc3)CN2C(=O)CC1c1cccs1 (stereo not given)	10	-2.3	0.3%	0	-6	0.0
CN(C(=O)c1cccc(NC(=O)Cc2cccc(NC(=O)C3CCN(C(=O)CCc4ccccc4)CC3)c2)c1)C1CC1	-4	-0.5	4.2%	-3	-1	0.1
COc1cc2c(cc1OC)CN(C(=O)c1ccc(S(=O)(=O)N3CCCCC3)cc1)CC2	6	-0.9	3.2%	-5	-7	3.2
N#Cc1cc(S(=O)(=O)c2ccc(F)cc2)c(N)[nH]c1=O	8	-0.7	2.5%	7	11	-0.2
COc1ccc(C(CC(=O)N2CCCCC2)c2c(OC)cc(OC)c3ccc(=O)oc23)cc1 (stereo not given)	8&0	0.0	2.0%	0	3	11&0.5
CNC(=S)N(CCc1c(C)[nH]c2ccc(C)cc12)Cc1cc(OC)c(OC)c(OC)c1	-7	1.3	2.1%	-16	-20	1.1
COc1ccc(-n2c(=O)c3c4c(sc3n(CC(=O)Nc3cc(C)[nH]n3)c2=O)CCC4)c(OC)c1	19	?	4.3%	-12	.	2.0
CCCN(C(=O)C1CCN(S(=O)(=O)c2c(C)noc2/C=C/c2ccc(C)cc2)CC1)c1ccccc1F	36	.	-0.7%	.	.	1.8
Cc1ccc(N(CC(C)C)S(=O)(=O)c2nnc(NC(=O)c3ccco3)s2)cc1	7	.	0.5%	.	.	3.5
CN(c1cc(Cl)c2c(c1)OCO2)c1cc2c(c3c1ccn3C)C1CCC2C1 (stereo not given)	-21	-3.4	?	12	5	-0.2
O=C(O)c1ccc(COc2ccc(/C=N/NC(=O)c3cccs3)cc2)cc1	19	2.1	-1.1%[38.3 µM]	-15	-20	2.8
Cc1cc(C)c2c(N)c(-c3nc4ccccc4[nH]3)sc2n1	-10	-0.7	0.1%	8	0	-0.2
Cc1ccc(NC(=O)COC(=O)c2ccc3c(=O)n4c(nc3c2)CCC4)c(Br)c1	-1	?	-0.2%	1	5	2.8
O=C(NC(=S)NCc1ccc2c(c1)OCO2)c1ccccc1	-28	-0.1	0.0%	-10	-3	1.1
Cc1ccc(NC(=O)CN(C)C(=O)COC(=O)c2oc3ccccc3c2C)cc1	11	3.7	0.6%	-3	-2	2.2
CC(C)N(Cc1ccccc1)C(=O)COC(=O)C1CCN(S(=O)(=O)c2ccc3c(c2)OCCO3)CC1	10	-2.5	6.2%	-7	-19	1.1
CCOC(=O)c1cc(-c2nnc(-c3cc(OC)c(OC)c(OC)c3)o2)c(C)nc1C	3	-0.1	16%	7	0	-0.5
C/C(=N\NC(=O)Cn1nc(C)c(Br)c1C)c1cccs1	31	-2.4	13%	4	-11	-0.7
Cc1ccc(N2C(=O)CC(Sc3ncn[nH]3)C2=O)cc1 (stereo not given)	2	-2.7	-0.4%	-3	5	-0.7
Cn1ccsc1=NC(=O)c1ccccc1OC(F)F	-14	1.2	1.6%	3	2	-0.8
C=CCn1cnc2scc(-c3ccc(C)c(C)c3)c2c1=O	-1	-2.8	0.8%	-1	.	0.9
C=CCN(C(=O)c1csnn1)C(C(=O)NC1CCCCC1)c1ccccc1F (stereo not given)	-12	1.0	0.0%	3	4	2.1
CC1CCN(C(=O)C2CCN(S(=O)(=O)c3cccc4cccnc34)CC2)CC1	-2	2.8	-0.9%	0	0	-0.9
CSc1n[nH]c(/N=C/c2oc(O)c3ccccc23)n1	-13	-0.5	2.0%	5	18	-0.2
Cc1ccc2c(c1)N(C(=O)CCC(=O)N1CCC(C(N)=O)CC1)CC(C)O2 (stereo not given)	10	-3.1	-0.1%	13	-12	-0.2
CC(C)(C)n1cc(S(=O)(=O)c2ccccc2)[nH]c1=O	19	-0.3	0.2%	10	8	-0.6
O=C(NCc1ccncc1)c1cccc(F)c1	-15	2.1	-4.3%[38.3 µM]	0	10	0.1
O=C(NNC(=O)c1cccnc1)Nc1ccc(Cl)c(Cl)c1	-2	-2.8	0.9%	-3	-2	-0.8
Cc1cccc(NC(=S)N2CCN(C(=O)c3ccco3)CC2)c1C	-1	8.0	-0.7%	5	8	0.8
COc1ccc(NC(=O)C2CCCN(S(=O)(=O)c3c(C)n[nH]c3C)C2)c(OC)c1 (stereo not given)	88	-2.6	-0.8%	16	0	-0.4
CCOC(=O)CCNC(=O)N1CCCC(N(C)CCc2ccc(OC)c(OC)c2)C1 (stereo not given)	-18	-4.4	0.0%	0	13	-0.2
CC1CCCC2(C1)NC(=S)c1c(sc3c1CCCC3)N2 (stereo not given)	-28	-13	-1.2%	-3	24	-0.1
c1ccc2[nH]c(CCCCc3nc4ccccc4[nH]3)nc2c1	.	-6.5	1.6%	0	-24	.
OC1(Cc2ccccc2)CCNCC1	7	0.9	-1.6%	1	-2	0.3

Profiles from above. Values in the order: TRPML1 inh	D2 ag	PINK1 expr mod	Six1-Eya2 blk	CtBP-E1A blk	TRPML1 agonist
`O=C(NCc1ccncc1)c1cccc(F)c1` in the list: -15	2.1	-4.3%[38.3 µM]	0	10	0.1
`Cc1cccc(NC(=S)N2CCN(C(=O)c3ccco3)CC2)c1C` in the list: -1	8.0	-0.7%	5	8	0.8
`c1ccc2[nH]c(CCCCc3nc4ccccc4[nH]3)nc2c1` in the list: .	-6.5	1.6%	0	-24	.
`CC1CCCC2(C1)NC(=S)c1c(sc3c1CCCC3)N2` (stereo not given) in the list: -28	-13	-1.2%	-3	24	-0.1

(further entries)
SMILES	TRPML1 inh	D2 ag	PINK1 expr mod	Six1-Eya2 blk	CtBP-E1A blk	TRPML1 agonist
CC(C)CC(=O)N1CCC(O)(CS(=O)(=O)Cc2ccc(Cl)cc2)CC1	5	1.2	.	5	-6	-0.2
COC(=O)c1c(NC(=O)CCN2CCOCC2)sc2c1CCCC2	3	-1.2	-0.6%	3	3	-0.6
Fc1ccccc1N1CCN(C(c2cccs2)c2nnnn2CCc2ccccc2)CC1 (stereo not given)	10	-1.6	-1.2%	-6	-3	22
CC1=C(C)CC(C(=O)N2CCN(C/C=C/c3ccccc3)CC2)C(C(=O)O)C1 (stereo not given)	0	1.0	-3.3%	10	3	0.8
CCOC(=O)c1ccc(NC(=O)CN2C(=O)C(CC)SC(CC)C2=O)cc1 (stereo not given)	-11	-3.5	0.0%	-5	3	0.5
CN(CCOc1ccccc1)CC(=O)Nc1ccc(Br)cc1F	5	-0.2	1.5%	5	26	3.2
Cc1ccc(F)cc1NC(=O)CSCc1c(C)noc1C	-8	-1.3	4.5%	9	4	0.7
O=C(NCc1ccc(Cl)cc1)c1ccc2c(c1)NC(=O)C(CS(=O)(=O)Cc1ccc(F)cc1Cl)N2 (stereo not given)	16	.	-1.4%	.	.	-0.6
COc1ccc(OCC(=O)Nc2ccc3c(c2)nc(CCN2CCC(C)CC2)n3C)cc1	-15	-2.2	-2.5%	-2	-1	-0.3
Cc1cc(C)c(NC(=O)CS(=O)CC(=O)Nc2ccc(-n3cnnn3)c(C)c2)c(C)c1 (stereo not given)	-3	2.1	-0.1%	-1	-4	-0.3
O=C(Nc1ccc(N2CCOCC2)cc1)c1ccc(Br)o1	1	1.0	-0.2%	-1	-1	-0.4
CC1(C(=O)NCc2cccc3ccccc23)CCN1C(=O)C1(c2ccccc2)CCCC1 (stereo not given)	.	-2.2	?	-4	-1	-0.5
COc1ccccc1CNC(=O)c1ccc2c(c1)N(Cc1c(F)cccc1Cl)C(=O)CS2	17	.	-0.7%	.	.	1.8
CC1=C(C(=O)Nc2ccccc2)C(c2ccc(C)o2)n2c(s/c(=C\c3ccco3)c2=O)=N1 (stereo not given)	5	-1.0	7.2%	-9	-2	0.5
CC(=O)NCCC(=O)Nc1cccc(S(=O)(=O)N(C)c2ccccc2)c1	-4	-5.5	8.0%	-4	3	0.0
N/C(Cc1cccs1)=N\OC(=O)COc1ccc(Br)cc1Cl	13	-1.4	-5.5%	73	2	4.9
COc1cc2c(cc1OC)CN(C(C)C(=O)Nc1cccc(S(=O)(=O)N3CCOCC3)c1)CC2 (stereo not given)	11	-4.3	3.2%	-5	1	-0.2
CCOCCCNC(=O)c1ccc2nc(CCc3ccccc3)oc2c1	40	.	-0.1%	.	.	2.8
CCOCCCNC(=O)c1cccc(NC(=O)C2=C(C)OCCS2)c1	1	2.8	-0.9%	-2	0	0.5
Cn1cc(Cl)c(C(=O)OCC(=O)Nc2cccc(Cl)c2)n1	31	-0.6	-0.8%	-4	-2	0.0
S=c1[nH]nc(-c2ccncc2)n1Cc1ccccc1	1	-4.3	.	4	11	0.0
COc1ccc(OC2CCN(S(=O)(=O)c3ccc(F)cc3)CC2)cc1	2	4.9	1.2%	5	-8	3.6
COc1cc(OC)cc(C(=O)NCC2CCCO2)c1 (stereo not given)	-3	0.8	.	3	6	-0.4
Clc1ccc(-c2nnc3sc(-c4ccc(Br)o4)nn23)c(Cl)c1	0	-3.9	15%	12	-10	-0.8
CCOc1ccccc1CNC(=O)c1ccc2c(c1)N(CC)CCS2	42&38	-4.4	0.4%&2.0%	-22	-5	2.8&2.3
CN(C)N1C(=O)CC(N2CCCCC2)C1=O (stereo not given)	22	-3.9	0.5%	9	0	0.5
O=C(NNC(=O)c1cccc(S(=O)(=O)N2CCCCC2)c1)c1ccccc1	-2	0.4	3.3%	-2	-1	-0.5
CCc1nn(CC(=O)NC(C)CC)c(=O)c2cc3occc3n12 (stereo not given)	38	.	2.6%	.	.	-0.6
CC(=O)N1CC2(CC(c3ccccc3F)=NO2)CN1c1ccc(Cl)cc1 (stereo not given)	-10	1.5	-1.2%	7	-4	-0.5
COc1cc(C(=O)NC(=S)N(C)Cc2ccccc2)cc(OC)c1OC	-6	-7.4	2.9%	5	-10	3.4
